# Cruzain inh Det = blocks cruzain activity in presence of Triton detergent; purified cruzain, Z-FR-AMC fluorescence, 0.01% Triton; P25779; actives 0.43% (n = 200,000); Potency, µM, without a hit: max response, negative = inhibition, hits mostly inhibitors; AID 1478;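 note: plate controls were neutral wells for no effect and buffer without enzyme for full effect; nearly all actives have a fitted effect of over 40% in size; top concentration of the series not given in the record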
# Target sequence (P25779 123-467 limits assumed): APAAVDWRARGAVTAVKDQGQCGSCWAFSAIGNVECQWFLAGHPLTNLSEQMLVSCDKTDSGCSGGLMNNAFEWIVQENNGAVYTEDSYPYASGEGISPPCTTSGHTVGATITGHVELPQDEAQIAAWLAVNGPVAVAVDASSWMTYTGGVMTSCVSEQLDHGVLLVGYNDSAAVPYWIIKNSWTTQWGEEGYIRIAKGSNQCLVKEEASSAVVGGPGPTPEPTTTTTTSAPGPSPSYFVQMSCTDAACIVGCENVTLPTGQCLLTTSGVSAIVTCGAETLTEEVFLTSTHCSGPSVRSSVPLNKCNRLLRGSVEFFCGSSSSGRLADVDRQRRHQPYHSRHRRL
#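 In this qHTS format, compounds are incubated with 1.5 nM cruzain for 15 min at room temperature before 2 uM Z-FR-AMC is added. Release of AMC is followed at 360/450 nm, and progress is taken as the 60 s fluorescence difference.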
# 2A StopGo = lowers the luciferase signal of an FMDV 2A StopGo reporter; human cells with a luciferase reporter of 2A StopGo recoding; control for the full effect not named in the record; Potency, µM (doses to about 57.9 µM), without a hit: at the highest dose signal change, negative = less light; actives 1.2% (n = 410,000); active = well fitted falling curve with a large enough effect; inconclusive = small, poorly fitted or top-dose-only effect; inactive = no such curve, though single readings can be large or run the other way; tested in HEK293T cells; note: % is set by controls: 0 for no effect and ±100 for the full control effect; nearly all actives have a fitted effect of over 45% in size; luciferase light after 4 h
# SARS PLpro yeast = inhibitors of SARS-CoV papain-like protease in yeast; S. cerevisiae expressing SARS-CoV PLpro, growth rescue; control for the full effect not named in the record; Potency, µM (highest dose often 32.9 µM), inactives show at the top dose activity, positive = growth rescue; actives 0.19% (n = 330,000); AID 485353; active means well fitted rising curve with a large enough effect; inconclusive means small, poorly fitted or top-dose-only effect; inactive means no such curve, though single readings can be large or run the other way; note: 0% is about no effect; nearly all actives have a fitted effect of over 55% in size; growth read by luminescence after 48 h
# MARV entry inh = blocks Marburg virus binding to or entry into cells; Marburg virus pseudotyped entry inhibition, cell reporter; control for the full effect not named in the record; about a third of the inactives were read at about 46 µM; Potency, µM (titrated, usually from 37.8 µM), for the others: at the highest dose activity change, negative = inhibition, hits mostly inhibitors; actives 1.8% (n = 300,000); AID 540276; active = well fitted inhibition curve with a large enough effect; inconclusive = small, poorly fitted or top-dose-only effect, or effect the other way; inactive = flat fitted curve, though single readings scatter; tested in HEK293 cells; about a fifth of its hits are not listed in these tables; note: % is set by controls: 0 for no effect and ±100 for the full control effect; luciferase read-out
# Lassa entry inh = inhibitors of Lassa virus binding or cell entry; Lassa virus pseudotype entry inhibition, cell reporter; control for the full effect not named in the record; Potency, µM (titrated, usually from 37.9 µM), for the others: at the top dose activity change, negative = inhibition, most hits filed as inhibitors; actives 1.2% (n = 300,000); AID 540256; active means well fitted inhibition curve with a large enough effect; inconclusive means small, poorly fitted or top-dose-only effect, or effect the other way; inactive means flat fitted curve, though single readings scatter; tested in HEK293 cells; note: % is set by controls: 0 for no effect and ±100 for the full control effect; nearly all actives have a fitted effect of over 50% in size; luciferase read-out
# RE007 growth inh = less growth of the S. pombe RE007 Vpr strain | actives 0.21% (n = 360,000) | S. pombe RE007 Vpr strain, BacTiter-Glo ATP luminescence, 24 h; control for the full effect not named in the record | Potency, µM (top dose mostly 92.2 µM), for the others: top-dose activity change, negative = less growth | AID 651644; active = well fitted falling curve with a large enough effect; inconclusive = small, poorly fitted or top-dose-only effect; inactive = no such curve, though single readings can be large or run the other way;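 note: % is set by controls: 0 for no effect and ±100 for the full control effect; nearly all actives have a fitted effect of over 50% in size; the assay follows cell death caused by Vpr and the record does not say whether a fall means rescue or toxicity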
#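 Fission yeast strain RE007, carrying one chromosomally integrated HIV-1 vpr copy, was seeded at OD 0.01 in PMG+AL medium with 23 nL pinned compound. After 24 h at 30 °C and 99% humidity, viability was read by BacTiter-Glo luminescence.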
# Cruzain inh noDet = blocks cruzain activity in detergent-free assay; P25779; purified cruzain, Z-FR-AMC fluorescence, no detergent; Potency, µM, for inactives: max response, negative = inhibition, hits mostly inhibitors; actives 2.3% (n = 200,000); AID 1476;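 note: plate controls were enzyme without inhibitor for no effect and buffer without enzyme for full effect; nearly all actives have a fitted effect of over 40% in size; top concentration of the series not given in the record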
#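 Detergent-free condition (0.00005% Triton X-100) in acetate buffer pH 5.5 with DTT. 1.5 nM enzyme and compound were pre-mixed 15 min, then 2 uM Z-FR-AMC substrate added; reaction progress from fluorescence change between first and third reads (60 s).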
# NS1 function inh = inhibitors of influenza NS1 protein function; S. cerevisiae slowed by influenza A NS1, growth recovery by OD600; actives 0.4% (n = 270,000); Potency, µM (highest dose often 46.1 µM), for the others: top-dose activity, positive = more growth; AID 2326; active means well fitted rising curve with a large enough effect; inconclusive means small, poorly fitted or top-dose-only effect; inactive means no such curve, though single readings can be large or run the other way; note: nearly all actives have a fitted effect of over 50% in size
#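 In this qHTS, NS1 from influenza A is expressed in budding yeast, where it slows growth. Cells are switched from glucose to 2% galactose medium (pH 6.0, -URA), treated with compound, and growth recovery is read at OD600.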
# The depositor's hits bear a star; ? = inconclusive; . = no result given; & = joins results of further samples; [ ] = another dose, or the depositor's remark. Unless noted, calls come from the whole dose curve; as a rule, active = well fitted curve in the direction sought with a large enough effect; inconclusive = small, poorly fitted or top-dose-only effect, or another doubt; inactive = no such curve, though single readings can be large; an effect the other way counts as inactive or inconclusive. Potency is the fitted concentration of half-maximal effect. No enrichment for hits; overall some 4.8% were active at least once.
mol,Cruzain inh Det,2A StopGo,SARS PLpro yeast,MARV entry inh,Lassa entry inh,RE007 growth inh,Cruzain inh noDet,NS1 function inh
COc1cc(-c2ccc(N)c(OC)c2)ccc1N,-1.2%,-1%,-19%,.,.,-18%,-10%,.
O=C(Nc1ccccc1NC(=O)c1ccc(F)cc1)c1ccc(F)cc1,.,-4%,0%,.,.,-15%,.,7%
COc1ccc(-n2c(/C=C3/C(=O)Nc4ccccc43)nc3ccccc3c2=O)cc1,.,?,-1%,?,?,-2%,.,.
CCC1CCCCN1Cc1c(O)ccc2c(=O)c(-c3ccccc3)coc12 (stereo not drawn),.,-1%,1%,?,?,-1%,.,-8%
O=C(COC(=O)/C=C/c1ccc(Cl)c(Cl)c1)NC1CCS(=O)(=O)C1 (stereo not drawn),.,-16%,1%,24%,9%,18%,.,.
COc1cc(/C=N/NC(=O)Cn2ccc(C(F)(F)F)n2)cc(OC)c1OC,.,-17%,-2%,-5%,-8%,-4%,.,.
Cc1nc2c(c(=O)n1Cc1ccccc1Cl)c1nc3ccccc3nc1n2Cc1ccco1,-20%,.,-4%,2%,.,.,-20%,?
CC(C)(C)c1ccccc1NC(=O)c1cc(-c2ccncc2)nc2ccccc12,.,1%,-10%,?,-20%[46.1 µM],-6%,.,.
CC/C(Cc1ccccc1)=N\NC(=O)c1cc([N+](=O)[O-])cc([N+](=O)[O-])c1,.,-4%,-1%,.,.,2%,.,4%
CCCCn1c(SCC(=O)Nc2nnc(C)s2)nnc1-c1ccoc1C,-1.2%,-25%,4%,-3%[46.1 µM],2%,4%,-2%,-1%
O=C1C2CC=CCC2C(=O)N1c1ccc(N2CCN(c3ccccn3)CC2)c([N+](=O)[O-])c1 (stereo not drawn),.,?,-3%,?,-33%[46.1 µM],-24%,.,.
Cc1ccccc1NC(=O)COC(=O)CCc1ccccc1,.,8%,1%,2%,-8%,-5%,.,.
CC1CN(C(=S)Nc2cccc(F)c2)CC(C)O1 (stereo not drawn),.,33%[activator],4%,-3%,-7%,-4%,.,7%
Fc1ccccc1N1CCN(Cc2nc(-c3ccc(Cl)cc3Cl)no2)CC1,-3.4%,-17%,-8%,0%,13%,-28%,-3%,-32%
CC(=O)c1c(C)[nH]c(C(=O)OCC(=O)Nc2cccc(S(=O)(=O)N(C)C)c2)c1C,.,-14%,0%,0%[46.1 µM],-6%[46.1 µM],11%,.,5%
CCOc1cc(C(=O)Nc2c(C)ccc3nsnc23)cc(OCC)c1OCC,0.0%,0%,3%,?,-17%,-2%,?,24%
CCOC(=O)c1cnc2nc(NCc3ccc(OC)c(OC)c3)[nH]n2c1=O,0.4%,-12%,3%,-6%[46.1 µM],7%,?,5%,6%
COc1ccc(CNC(=O)CCC2N=C3c4ccccc4N=C(SCc4ccccc4F)N3C2=O)cc1 (stereo not drawn),-4.3%,6%,.,.,0%[46.1 µM],.,22%,.
N#CCCn1c(SCC(=O)c2c[nH]c3ccccc23)nc2ccccc21,-6.0%,0%,4%,?,-10%,11%,?,14%
COc1ccccc1N1CCN(C(=O)c2c(C)cc(=O)oc2C)CC1,-2.7%,-9%,-4%,14%,4%,-1%,-8%,-22%
O=C(CCCCCN1C(=O)CCC1=O)NCc1ccccc1,1.7%,-5%,1%,?,9%,3%,6%,10%
Oc1ccc(Cl)cc1C1=NCCNC(C(F)(F)C(F)F)=C1,-22%,-8%,22%,17%,-8%,-13%,?,2%
Cc1cc(Nc2ccccc2O)nc(C)n1,-0.9%,12%,.,1%[46.1 µM],6%[46.1 µM],.,3%,.
CC(C)CN1C(=O)C(=O)N(CC(=O)NC(C)CCc2ccccc2)C1=O (stereo not drawn),.,1%,2%,17%[46.1 µM],?,-5%,.,.
O=S(=O)(NCCc1csc2nc(-c3ccc(Cl)cc3)nn12)c1cccs1,-6.9%,0%,.,.,-19%[46.1 µM],.,-3%,.
CC1=C(c2ccccc2)C(O)(c2ccccc2)C(C)C1=O (stereo not drawn),.,?,.,?,-29%[46.1 µM],11%,.,.
CCOc1ccc2nc(N3CCCC(C(=O)NCc4ccc(C)cc4)C3)sc2c1 (stereo not drawn),-1.6%,33%[activator],.,6%[46.1 µM],.,.,1%,.
CCN(c1ccccc1)S(=O)(=O)c1ccc2[nH]cc(C(=O)NCc3ccc(C)cc3)c(=O)c2c1,-0.7%,-6%,.,.,?,.,-10%,.
C/C(=N/N1CCN(Cc2cccc3ccccc23)CC1)c1cccnc1,.,-17%,6%,-11%[46.1 µM],-28%,-4%,.,8%
O=C(C[n+]1cc2ccccc2c2ccccc21)c1ccccc1,-9.3%,-16%,10%,?,?,-14%,-23%,?
O=C(CCS(=O)(=O)c1ccc2c(c1)NC(=O)CS2)NCCc1ccccc1,.,-3%,-5%,.,.,0%,.,-1%
COCCCNc1nc2c(c(=O)[nH]c(=O)n2C)n1CC(O)COc1ccc(Cl)cc1 (stereo not drawn),-0.5%,-6%,.,7%[46.1 µM],0%[46.1 µM],.,0%,.
O=C(COC(=O)c1cc(=O)[nH]c(=O)[nH]1)Nc1cccc(S(=O)(=O)N2CCOCC2)c1,.,3%,7%,5%,22%,-13%,.,2%
O=C(NCCn1cccn1)C1CCC(=O)N(CCc2ccccc2)C1 (stereo not drawn),.,-4%,2%,?,23%,-6%,.,16%
CCCCNc1c([N+](=O)[O-])cc(C)cc1[N+](=O)[O-],-5.3%,7%,1%,18%,24%,0%,0%,19%
Cc1cccc(NC(=S)N2CCC(NC(=O)C3CCCCC3)CC2)c1,.,-6%,0%,-20%[46.1 µM],?,-4%,.,2%
CCN1CCN(c2ccc(NS(=O)(=O)c3c(C)nc4sccn4c3=O)cc2Cl)CC1,-2.2%,-10%,.,?,-25%[46.1 µM],.,-4%,.
CCOc1ccc(S(=O)(=O)NCc2ccncc2)cc1NC(=O)c1ccccc1,.,-11%,0%,3.5µM*,?,-2%,.,.
CSc1cccc(NC(=S)N(Cc2ccc(C)cc2)Cc2ccccn2)c1,.,-3%,-17%,12%[46.1 µM],1%,-5%,.,.
C=C(C)CN=CC1(C)CCC(C)=CO1 (stereo not drawn),.,-19%,.,?,?,-7%,.,.
CCCOc1ccc(CNC(=O)Cn2c(=O)oc3ccccc32)cc1,-0.6%&2.1%,-17%&-16%,7%,-3%[46.1 µM],.,-8%,-4%&-2%,3%
Cc1onc(-c2ccccc2Cl)c1C(=O)NCCCc1ccccc1,.,-21%,?,-1%,2%,-6%,.,-9%
COc1ccc(S(=O)(=O)N2CCCOC2CNC(=O)C(=O)NC2CCCC2)cc1 (stereo not drawn),.,-8%,-3%,-5%,?,2%,.,-1%
CCOc1ccc(CNC(=O)C2CCN(S(=O)(=O)N3CCCCC3)CC2)cc1,-0.3%,-10%,.,.,10%[46.1 µM],.,1%,.
CCc1nnc(NC(=O)CSc2nnc(-c3ccccc3O)o2)s1,.,5%,-3%,?,-23%,-14%,.,-3%
Cc1cc2cc(CCNC(=O)C(C)C)c(=O)[nH]c2cc1C,.,.,.,7%,?,1%,.,2%
O=C(CSc1nc2sc3c(c2c(=O)n1-c1ccccc1)CCCC3)N/N=C/c1ccc(C(=O)O)cc1,.,0%,16%,11%[46.1 µM],27%[46.1 µM],-2%,.,9%
Cc1ccc(C(=O)NC2CCN(CCCC(=O)c3ccc(F)cc3)CC2)cc1,.,-8%,7%,16%,22%,-13%,.,9%
Cc1nc(-c2cccc(NC(=O)C3CCCCC3)c2)cs1,.,0%,-1%,.,.,-11%,.,-8%
O=C(O)c1c(-c2ccccc2)c(-c2ccccc2)nc2ccccc12,.,-7%,0%,5%[46.1 µM],-1%,15%,.,-1%
O=C(Nc1ccnn1C1CCN(C(=O)Cc2ccccc2F)CC1)C1CC1,.,-4%,-2%,4%,?,-13%,.,7%
CCCCC1CCC(/C(N)=N/O)CC1 (stereo not drawn),1.7%,-20%,-11%,-18%,7%,7%,7%,-50%
COCc1cc(C)nc2sc(C(=O)NC3CCCCC3)c(N)c12,-1.6%,0%,5%,29%,-3%,0%,-7%,19%
CC(C)(C)C1CCc2c(sc3ncn(N)c(=N)c23)C1 (stereo not drawn),.,?,-3%,.,.,-12%,.,-6%
CCN1CCN(C(=S)Nc2cc(S(=O)(=O)N(CC)CC)ccc2C)CC1,.,-9%,-8%,.,.,16%,.,-4%
CCCCCCNC(=O)C(C(=O)OCC)C1CCCCC1 (stereo not drawn),6.8%,-20%,1%,?,-11%,-12%,-12%,-11%

# (list continues)
mol,Cruzain inh Det,2A StopGo,SARS PLpro yeast,MARV entry inh,Lassa entry inh,RE007 growth inh,Cruzain inh noDet,NS1 function inh
Cc1cc(C)nc(Nc2nc3ccccc3s2)n1,.,54%[activator],-7%,7%[46.1 µM],-12%,10%,.,.
Cc1ccc(Nc2nc(N)c([N+](=O)[O-])c(N3CCOCC3)n2)cc1,-7.0%,-31%,-5%,-10%,4%,21%,-1%,8%
O=C(NCc1ccc(OC(F)(F)F)cc1)C1CC(c2ccccc2C(F)(F)F)=NO1 (stereo not drawn),.,-8%,-8%,.,.,7%,.,-1%
c1ccc(-c2nc(CSc3nnc(-c4cccs4)o3)cs2)cc1,0.3%,26%,-4%,2%&2%,17%,30%,?,-18%
Cc1ccccc1S(=O)(=O)c1c(C)cc(C)n(CC(C)C)c1=O,-2.9%,7%,-21%,?,1%,-2%,-3%,4%
Cc1ccc(-n2c(COc3c(C)cccc3C)nnc2SCC(=O)Nc2nccs2)cc1,11%,3%,6%,-24%,-14%,16%,25µM*,-2%
COC(=O)c1[nH]c2cccc(Cl)c2c1NC(=O)CN(C)C1CCCCC1,-1.3%,-5%,-12%,11µM*,-2%,0%,-1%,-88%
Cn1c(=O)c2c(nc(N3CCCC3)n2CC(O)CO)n(C)c1=O (stereo not drawn),0.4%,-24%,-5%,2%,-26%,-13%,7%,2%
O=C(Nn1nnnc1Nc1ccccc1)C12CC3CC(CC(C3)C1)C2,3.2%,-22%,2%,-5%,-1%,5%,1%,.

# Screening data: PubChem BioAssay, National Center for Advancing Translational Sciences (NCATS)
